VDR inhibitor = blocks the human vitamin D receptor | AID 504847 | VDR-SRC2-3 peptide fluorescence polarization, 2 h | Potency, µM, for the others: max response, negative = inhibition, most hits filed as inhibitors | P11473 | 400,000 tested, 0.93% active; active means well fitted inhibition curve with a large enough effect; inconclusive means small, poorly fitted or top-dose-only effect, or another doubt; inactive means no such curve, though single readings can be large or run the other way; further: series mostly up to about 120 µM
Target sequence (P11473 whole entry, looked up): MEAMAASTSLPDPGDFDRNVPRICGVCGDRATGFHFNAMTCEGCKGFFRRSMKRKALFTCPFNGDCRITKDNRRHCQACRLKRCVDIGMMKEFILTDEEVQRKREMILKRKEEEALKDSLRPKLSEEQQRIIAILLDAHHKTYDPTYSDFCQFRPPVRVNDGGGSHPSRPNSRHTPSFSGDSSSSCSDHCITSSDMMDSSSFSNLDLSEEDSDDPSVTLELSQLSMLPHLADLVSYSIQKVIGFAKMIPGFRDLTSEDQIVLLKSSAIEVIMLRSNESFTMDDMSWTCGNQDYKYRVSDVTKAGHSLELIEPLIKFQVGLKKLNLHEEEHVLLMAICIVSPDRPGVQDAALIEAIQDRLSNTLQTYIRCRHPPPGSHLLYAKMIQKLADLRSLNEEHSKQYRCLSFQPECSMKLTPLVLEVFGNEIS
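FP read-out; VDR + SRC2-3 coactivator peptide; 23 nl compound by pintool; 2 h RT incubation; reagents held at 4 deg C, protected from light.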
* = called active by the depositor; ? = inconclusive; [ ] = remark or other dose. On the % scale 0 is the no-effect control and ±100 the full control effect; potency means the concentration at half of the fitted maximal effect.

VDR inhibitor	canonical_smiles
10%	CCOc1ccccc1NC(=O)CN1C(=O)C2(SCC(=O)N2c2cccc(F)c2)c2ccccc21 (stereo not drawn)
-11%	COc1ccc(C(=O)c2oc3ccc(OC)cc3c2N)cc1
-20%	COCCCN1C2=C(C(=O)CC(C)(C)C2)C(c2ccc(O)c(OC)c2)C2=C1CC(C)(C)CC2=O
0%	NS(=O)(=O)c1ccc(N/C=C\C(=O)c2ccc(F)cc2)cc1
-6%	COc1cc(OC)cc(C(=O)Nc2ccc(S(=O)(=O)Nc3cnc4ccccc4n3)cc2)c1
-4%	Cc1ccc(Nc2c(-c3ccc(C)s3)nc3ncccn23)cc1
11%	COCC(=O)N(Cc1cc2ccccc2[nH]c1=O)c1ccccc1OC
-4%	Cc1ccc(NC(=O)Cn2c(=O)n(Cc3ccccc3)c(=O)c3c(C)c(C(=O)N(C)C)sc32)c(C)c1
-25%	CCOc1ccccc1NC(=S)N1CCC(c2nc3ccccc3o2)CC1
-22%	O=C(CSc1ccc(S(=O)(=O)N2CCCC2)cn1)Nc1ccc([N+](=O)[O-])cc1C(F)(F)F
15%	COc1ccc(/C=C/C(=O)NCC(=O)N/N=C(/C)c2ccco2)cc1
-14%	O=C(CSc1nnc(NC(=O)c2ccccc2)s1)NCC1CCCO1 (stereo not drawn)
-19%	CCOC(=O)C(C#N)=CN1CCN(C(=O)CCCl)c2ccccc21
5%	COc1cc(NS(=O)(=O)c2c(C(=O)N3CCOCC3)c(C)n(C)c2C)cc(OC)c1OC
-5%	COc1cccc(/C=N/c2oc(-c3ccccc3)cc2C#N)c1O
-2%	COC(=O)c1ccc2c(=O)n(Cc3ccc(C(=O)NC4CCCC4)cc3)c(=S)[nH]c2c1
0%	CCN(C(=O)c1ccc(NC(=O)c2ccco2)cc1)c1ccccc1
2%	CC(C)(CO)NCc1cccc(OCc2ccc(Cl)cc2)c1
-16%	Cc1cc(C)cc(OC(=O)CN2C(=O)c3ccccc3C2=O)c1
7%	Cc1cc(C)n(-c2nc3ccccc3nc2N2CCOCC2)n1
-21%	CN(C(=O)Cn1cc(C(F)(F)F)cc(Cl)c1=O)C1CCS(=O)(=O)C1 (stereo not drawn)
7%	COCCSc1ccccc1C(=O)Nc1nncs1
-4%	CC(C)(C)c1ccc(OCC(O)CSc2ncn[nH]2)cc1 (stereo not drawn)
15%	CS(=O)(=O)c1ccc(Cl)c(NC(=O)CCc2ccccc2)c1
-7%	CC(N=c1ccccn1C(=O)Nc1cccc(C(F)(F)F)c1)c1ccco1 (stereo not drawn)
10%	Cc1nc(N2CCCC2)ncc1C(=O)N1CCN(c2ccccc2F)CC1
21%	CCOC(=O)c1c(-c2cccs2)csc1NC(=O)CCCC(=O)O
-19%	CCC(=O)OCC(=O)Nc1ncc(C(F)(F)F)cc1Cl
-6%	Cc1onc(C(=O)NN)c1C(=O)N1CCN(C(c2ccccc2)c2ccccc2)CC1
-7%	CCOc1ccc(S(=O)(=O)N2CCC(C(=O)NC3CCCCC3)CC2)cc1
-14%	Cc1c(-c2cccs2)[n+](=O)c2c(n1[O-])CCCC2
6%	CC(C)N(C(=O)Cn1cc(S(=O)(=O)Cc2ccc(Br)cc2)c2ccccc21)C(C)C
14%	COc1ccc(S(=O)(=O)Nc2cccc(-c3ccc(N4CCCC4)nn3)c2)cc1F
-13%	NC(=S)N1OC[C@@H]2COc3ccc4ccccc4c3[C@@H]21
-14%	O=C(NCCc1ccccc1)c1ccc([N+](=O)[O-])cc1
-1%	O=C(/C=C/c1ccccc1Cl)N1CCN(c2ncccn2)CC1
-12%	Cc1ccc(C2CC(c3ccco3)n3nc(N)nc3N2)cc1 (stereo not drawn)
79µM*	COC(=O)CCCCCN1C(=O)/C(=C\c2ccncc2)SC1=S
-12%	COc1ccc(CNC(=O)c2c(O)c3cccc4c3n(c2=O)CCC4)cc1OC
8%	COc1cc(OC)cc(C(=O)OCc2cc3ccccc3[nH]c2=O)c1
3%	CCN1CCN(CCCOc2ccc(Cl)cc2Br)CC1
-3%	Cc1ccc(NC(=O)COC(=O)Cc2ccccc2)cc1S(=O)(=O)N1CCOCC1
-2%	CC(C)c1nnc(NC(=O)C2c3ccccc3Oc3ccccc32)s1
-24%	O=C(OCC(=O)N1CCCCC1)c1cc(NS(=O)(=O)c2ccc(Cl)c([N+](=O)[O-])c2)ccc1O
-7%	COC(=O)c1c(CSc2cccc(C)c2)noc1C(=O)NCc1ccco1

6 compounds out of the list above, ordered by the value under VDR inhibitor, highest first:
VDR inhibitor	canonical_smiles
6%	CC(C)N(C(=O)Cn1cc(S(=O)(=O)Cc2ccc(Br)cc2)c2ccccc21)C(C)C
3%	CCN1CCN(CCCOc2ccc(Cl)cc2Br)CC1
-1%	O=C(/C=C/c1ccccc1Cl)N1CCN(c2ncccn2)CC1
-3%	Cc1ccc(NC(=O)COC(=O)Cc2ccccc2)cc1S(=O)(=O)N1CCOCC1
-13%	NC(=S)N1OC[C@@H]2COc3ccc4ccccc4c3[C@@H]21
-14%	O=C(NCCc1ccccc1)c1ccc([N+](=O)[O-])cc1

(list continues)
VDR inhibitor	canonical_smiles
-3%	Cc1ccc(C(=O)O/N=C(\N)c2cccc([N+](=O)[O-])c2)cc1
0%	Cc1ccc(CNC(=O)c2ccc3c(=O)c(O)c(-c4ccc(C)cc4)[nH]c3c2)cc1
0%	CCCN(CCC)C(=O)c1ccc2nc(-c3ccc(OC)c(OC)c3)c(-c3ccc(OC)c(OC)c3)nc2c1
7%	O=C(COc1ccccc1F)Nc1ccc(Cl)c(-c2nc3ccccc3[nH]2)c1
-1%	O=S(=O)(c1ccc(SCc2ccc(Cl)cc2)nc1)N1CCCC1
-24%	CCOc1ccc(/C=N/NC(=O)C2(O)c3ccccc3-c3ccccc32)cc1
4%	CCOc1ccc(NC(=O)N(Cc2c[nH]c3ccccc23)C2CCCCC2)cc1
-5%	Cc1cc(-c2nnc3n2N=C(c2ccc(-c4ccccc4)cc2)CS3)n[nH]1
-20%	O=C(COC(=O)C1CCC1)NCc1ccccc1
-18%	COc1cc(NC(=O)N2CCN(c3cc(-c4noc(C)n4)ccc3C)CC2)cc(OC)c1OC
1%	COc1ccccc1-c1n[nH]c(=S)o1
-21%	Cc1ccc(C)c(N(C(=O)c2snc(C(N)=O)c2N)C(C(=O)NCC2CCCO2)c2ccc(C)o2)c1 (stereo not drawn)
8%	CC(C)COc1ccc(C(=O)N(Cc2ccco2)C2CCS(=O)(=O)C2)cc1 (stereo not drawn)
9%	Cc1cc(C)c(OCC(=O)NCC(c2ccco2)N2CCCCC2)c(C)c1 (stereo not drawn)
-12%	CCCCN(C)CC(O)Cn1cc(/C=C/C(=O)c2cccs2)c2ccccc21 (stereo not drawn)
-18%	COc1ccc(CCNS(=O)(=O)c2cccc3cccnc23)cc1OC
12%	Cc1ccc(C)c(C(=O)Nc2ccncc2)c1
-1%	CCOc1ccc(-n2cc(-c3ccccc3)c3c(SC(C)C(=O)OC)ncnc32)cc1 (stereo not drawn)
2%	O=C(CCS(=O)(=O)Cc1ccccc1)N1CCN(c2ccccc2)CC1
-18%	CC(Sc1ccsc1[N+](=O)[O-])C(=O)N1CCN(c2ccccn2)CC1 (stereo not drawn)
-4%	COc1cccc(/C=C2\SC(=O)N(CCC(=O)N3CCC(C(=O)O)CC3)C2=O)c1
13%	COc1ccccc1CNC(=O)CCC1N=C2c3ccccc3N=C(SCC(=O)Nc3ccc(F)cc3)N2C1=O (stereo not drawn)
?	CCOC(=O)c1c(C2COc3ccccc3O2)csc1NC(=O)c1ccco1 (stereo not drawn)
-12%	COc1ccc(C2=NN(S(=O)(=O)c3ccccc3)C(c3ccccc3)C2)cc1 (stereo not drawn)
1%	COc1ccc(C(CCNCc2ccc(OC(C)C)cc2)C(C)C)cc1 (stereo not drawn)
0%	COc1ccc(/C(C)=N/NC(=O)c2ccc3nc[nH]c3c2)cc1
2%	O=C(Nc1ccc(Cl)cc1)C1CC(=O)n2c(nc3ccccc32)N1 (stereo not drawn)
-5%	O=C(CSc1nnc(-c2ccncc2)n1Cc1ccco1)Nc1nc(-c2ccccc2)cs1
8%	O=C(CSc1nnnn1-c1ccccc1)N1CCCc2ccccc21
5%	COC(=O)Nc1ccc(S(=O)(=O)N2c3ccccc3CCC2C)cc1 (stereo not drawn)
-3%	N/C(=N\N=C\c1ccco1)SC1CC(=O)N(c2ccccc2)C1=O (stereo not drawn)
-21%	CC/C(=C\c1ccc(N(C)C)cc1)c1ccncc1
-18%	O=C1NCCCCC1NS(=O)(=O)c1ccccc1 (stereo not drawn)
?	O=C(N/N=C\C=C\c1ccco1)c1cncc(Br)c1
-8%	CCc1ccccc1NC(=O)CNC(=O)CCNC(=O)Nc1ccccc1
14%	Cc1ccc(C(=O)NCCc2nnc3ccc(SCC(=O)N4CCCC4)nn23)cc1
1%	CCCn1c(N2CCC(Cc3ccccc3)CC2)nc2c1c(=O)[nH]c(=O)n2C
-13%	O=C(COC(=O)CCc1ccccc1)NC12CC3CC(CC(C3)C1)C2
?	CCN(CC)S(=O)(=O)c1ccc(C(=O)/C=C/c2ccc(-c3ccc([N+](=O)[O-])cc3)o2)cc1
6%	Cc1nn(CC(=O)NC(C)c2ccccc2)c(=O)c2cc3occc3n12 (stereo not drawn)
0%	CCOc1ccccc1NC(=O)CCc1ccc(C)o1
12%	Cc1cc(-n2ccnc(NCCc3ccc(S(N)(=O)=O)cc3)c2=O)ccc1Br
2%	CCN(CC)Cc1csc(C(N)=O)c1
13%	O=C(COC(=O)C12CC3CC(CC(Br)(C3)C1)C2)N1CCOCC1
15%	Cc1ccc(Cn2c(SCCN3CCCCC3)nc3c2c(=O)n(C)c(=O)n3C)cc1

In the list so far, two contain a COOH group.
VDR inhibitor	canonical_smiles
21%	CCOC(=O)c1c(-c2cccs2)csc1NC(=O)CCCC(=O)O
-4%	COc1cccc(/C=C2\SC(=O)N(CCC(=O)N3CCC(C(=O)O)CC3)C2=O)c1

Other entries:
VDR inhibitor	canonical_smiles
-3%	O=C(COc1ccccc1)N1CCN=C1SCc1ccccc1
-3%	CC1Cc2ccccc2N1CC(=O)Nc1ccc2c(c1)OC(F)(F)O2 (stereo not drawn)
-13%	Cc1cc(=O)[nH]c(/N=C(\N)Nc2cccc3ccccc23)n1
-6%	O=C(c1cc2cc(Cl)ccc2oc1=O)N1CCOCC1
3%	Cc1ccc(C2c3[nH]c4ccccc4c3CCN2C(=O)CCc2ccccc2)cc1 (stereo not drawn)
-8%	CCOc1ccc2nc(NC(=O)C3CCN(c4cnccn4)CC3)sc2c1
-4%	Cc1ccc(-c2cc(N)nc(-c3ccccc3)c2)cc1
0%	COc1ccc(CCNS(=O)(=O)c2ccc(-c3ccc(=O)[nH]n3)o2)cc1OC
8%	Cc1cc(C)c2c(N)c(C(=O)NCC3CCCCC3)sc2n1
10%	CCOc1ccc(N2C(=O)CC(SCc3nc4ccccc4[nH]3)C2=O)cc1 (stereo not drawn)
6%	COc1ccc(N2CCN(C(=O)CSc3n[nH]c(-c4ccccc4)n3)CC2)cc1
-3%	CCn1ccc(C(=O)Nc2cccc(Cl)c2)n1
-5%	CCN(C(=O)COC(=O)COc1ccc2c(c1)CCC2)c1c(N)n(Cc2ccccc2)c(=O)[nH]c1=O
-1%	O=C(NCCCn1ccnc1)C1c2ccccc2Oc2ccccc21
-5%	COC(=O)c1sc(S(=O)(=O)NCc2ccccc2)c(C(=O)OC)c1C

By substructure, those above containing a nitro group on carbon (6)
VDR inhibitor	canonical_smiles
-22%	O=C(CSc1ccc(S(=O)(=O)N2CCCC2)cn1)Nc1ccc([N+](=O)[O-])cc1C(F)(F)F
-14%	O=C(NCCc1ccccc1)c1ccc([N+](=O)[O-])cc1
-24%	O=C(OCC(=O)N1CCCCC1)c1cc(NS(=O)(=O)c2ccc(Cl)c([N+](=O)[O-])c2)ccc1O
-3%	Cc1ccc(C(=O)O/N=C(\N)c2cccc([N+](=O)[O-])c2)cc1
-18%	CC(Sc1ccsc1[N+](=O)[O-])C(=O)N1CCN(c2ccccn2)CC1 (stereo not drawn)
?	CCN(CC)S(=O)(=O)c1ccc(C(=O)/C=C/c2ccc(-c3ccc([N+](=O)[O-])cc3)o2)cc1

(further entries)
VDR inhibitor	canonical_smiles
3%	Cc1ccc(/C=N/NC(=S)NC2CCCCC2)o1
9%	N#Cc1cc(-c2ccccc2)nnc1Sc1ccc(Cl)cc1
-4%	Cc1ccc(OCc2ccc(C(=O)Nc3nc4ccccc4n3C)o2)c([N+](=O)[O-])c1
-24%	O=C(CN1C(=O)/C(=C\c2cccc(Br)c2)Oc2ccccc21)NCCCN1CCOCC1
8%	O=C(O)c1cc2nc(-c3ccccc3)cc(C(F)(F)F)n2n1
-1%	CCCCC(=O)Nc1nnc(SCC(=O)NC2CC2)s1
?	CC(C)(C)C(=O)c1sc2nc(-c3cccs3)cc(C(F)(F)F)c2c1N
-2%	N#C/C(=C(/O)c1ccc(F)cc1)c1nc2ccccc2s1
7%	COc1cccc(C(=O)N2CCN(CCCc3ccccc3)CC2)c1OC
-27%	CCOc1ccc2c(c1)c(N=NC(=N)N)c(O)n2C
134%[activator]	CC1CCCN(C(=O)C(C)Nc2cc(Cl)ccc2N2CCOCC2)C1 (stereo not drawn)
-9%	CC(=O)OCCSc1c(-c2ccccc2)c2cc(Cl)ccc2[nH]c1=O
-12%	N#Cc1c(-n2ccnc2)cccc1-n1ccnc1
-3%	Cn1cccc1/C=C(/C#N)c1ccc(F)cc1
11%	O=C(NCCOCCn1c(=O)oc2ccccc21)Nc1ccc(F)cc1
13%	Cc1cc(C)nc(SCC(=O)Nc2cccc(S(=O)(=O)N(C)C)c2)n1
-1%	Cc1snc(SCc2ccc(F)cc2)c1C#N
2%	COc1ccccc1NC(=O)c1sc(-c2ccc(Cl)cc2)cc1N
2%	CCCCN(C)S(=O)(=O)c1cc(-c2nnc3c4ccccc4c(C)nn23)ccc1C
-8%	O=C(CSc1ncnc2c1oc1ccccc12)Nc1ccccc1F
8%	COc1ccc(-c2nc3c4cnn(-c5ccccc5F)c4ncn3n2)cc1
9%	Cc1cc(Br)ccc1S(=O)(=O)n1ccnc1C
9%	Cc1ccccc1CNC(=O)Cn1ncn2nc(-c3cccs3)cc2c1=O
-6%	COc1ccc(C2C(C(=O)c3ccccc3)=C(C)Nc3nc4ccccc4n32)cc1OC (stereo not drawn)

Not all compounds are listed; rates above refer to the full screens.
